High-throughput results (PubChem BioAssay)
RE007 growth inh: less growth of the S. pombe RE007 Vpr strain; S. pombe RE007 Vpr strain, BacTiter-Glo ATP luminescence, 24 h; control for the full effect not named in the record; Potency, µM (doses to about 92.2 µM), for inactives: at the top dose activity change, negative = less growth; hit rate 0.21% among 360,000; active = well fitted falling curve with a large enough effect; inconclusive = small, poorly fitted or top-dose-only effect; inactive = no such curve, though single readings can be large or run the other way;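 note: % is set by controls: 0 for no effect and ±100 for the full control effect; nearly all actives have a fitted effect of over 50% in size; the assay follows cell death caused by Vpr and the record does not say whether a fall means rescue or toxicity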
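Fission yeast strain RE007, carrying one chromosomally integrated HIV-1 vpr copy, was seeded at OD 0.01 in PMG+AL medium with 23 nL pinned compound. After 24 h at 30 °C and 99% humidity, viability was read by BacTiter-Glo luminescence.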
Cruzain Triton: blocks cruzain activity in presence of Triton detergent; P25779; hit rate 0.43% among 200,000; Potency, µM, inactives show max response, negative = inhibition, most hits filed as inhibitors; purified cruzain, Z-FR-AMC fluorescence, 0.01% Triton; active = well fitted curve in the direction sought with a large enough effect; inconclusive = small, poorly fitted or top-dose-only effect, or another doubt; inactive = no such curve, though single readings can be large; an effect the other way counts as inactive or inconclusive;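 note: plate controls were neutral wells for no effect and buffer without enzyme for full effect; nearly all actives have a fitted effect of over 40% in size; top concentration of the series not given in the record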
Target sequence (P25779 123-467 limits assumed): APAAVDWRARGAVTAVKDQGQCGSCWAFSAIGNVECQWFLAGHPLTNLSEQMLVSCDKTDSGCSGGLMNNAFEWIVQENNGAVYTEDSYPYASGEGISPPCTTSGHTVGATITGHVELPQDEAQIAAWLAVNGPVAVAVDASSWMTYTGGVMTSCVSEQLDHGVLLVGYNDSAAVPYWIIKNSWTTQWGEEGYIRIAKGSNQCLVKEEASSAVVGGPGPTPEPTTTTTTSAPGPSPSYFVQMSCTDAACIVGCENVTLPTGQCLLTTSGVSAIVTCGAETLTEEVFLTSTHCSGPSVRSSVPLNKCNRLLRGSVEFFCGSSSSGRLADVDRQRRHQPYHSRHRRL
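Sodium acetate buffer (100 mM, pH 5.5) containing 5 mM DTT and 0.01% Triton X-100 hosted 1.5 nM cruzain and test compound for 15 min at room temperature. Cleavage of 2 uM Z-FR-AMC was then tracked by fluorescence.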
Lassa entry inh: blocks Lassa virus binding to or entry into cells; Potency, µM (highest dose often 37.9 µM), for inactives: at the highest dose activity change, negative = inhibition, most hits filed as inhibitors; hit rate 1.2% among 300,000; Lassa virus pseudotype entry inhibition, cell reporter; control for the full effect not named in the record; active means well fitted inhibition curve with a large enough effect; inconclusive means small, poorly fitted or top-dose-only effect, or effect the other way; inactive means flat fitted curve, though single readings scatter; tested in HEK293 cells; note: % is set by controls: 0 for no effect and ±100 for the full control effect; nearly all actives have a fitted effect of over 50% in size; luciferase read-out
SARS PLP yeast: SARS-CoV PLP inhibition in yeast | S. cerevisiae expressing SARS-CoV PLpro, growth rescue; control for the full effect not named in the record | Potency, µM (titrated, usually from 32.9 µM), for inactives: top-dose activity, positive = growth rescue | hit rate 0.19% among 330,000 | AID 485353; note: 0% is about no effect; nearly all actives have a fitted effect of over 55% in size; growth read by luminescence after 48 h
StopGo reporter: lowers the luciferase signal of an FMDV 2A StopGo reporter; human cells with a luciferase reporter of 2A StopGo recoding; control for the full effect not named in the record; Potency, µM (doses to about 57.9 µM), without a hit: at the highest dose signal change, negative = less light; hit rate 1.2% among 410,000; AID 1159524; active = well fitted falling curve with a large enough effect; inconclusive = small, poorly fitted or top-dose-only effect; inactive = no such curve, though single readings can be large or run the other way; tested in HEK293T cells; note: % is set by controls: 0 for no effect and ±100 for the full control effect; nearly all actives have a fitted effect of over 45% in size; luciferase light after 4 h
Cruzain noTriton: inhibitors of Trypanosoma cruzi cruzain without detergent; P25779; hit rate 2.3% among 200,000; purified cruzain, Z-FR-AMC fluorescence, no detergent; AID 1476; Potency, µM, inactives show max response, negative = inhibition, hits mostly inhibitors; active = well fitted curve in the direction sought with a large enough effect; inconclusive = small, poorly fitted or top-dose-only effect, or another doubt; inactive = no such curve, though single readings can be large; an effect the other way counts as inactive or inconclusive;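 note: plate controls were enzyme without inhibitor for no effect and buffer without enzyme for full effect; nearly all actives have a fitted effect of over 40% in size; top concentration of the series not given in the record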
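Detergent-free condition (0.00005% Triton X-100) in acetate buffer pH 5.5 with DTT. 1.5 nM enzyme and compound were pre-mixed 15 min, then 2 uM Z-FR-AMC substrate added; reaction progress from fluorescence change between first and third reads (60 s).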
NS1 function inh: inhibitors of influenza NS1 protein function; Potency, µM (doses to about 46.1 µM), for inactives: at the top dose activity, positive = more growth; S. cerevisiae slowed by influenza A NS1, growth recovery by OD600; hit rate 0.4% among 270,000; AID 2326; note: actives are rising curves; nearly all actives have a fitted effect of over 50% in size
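Growth recovery, yeast-based: influenza A NS1 expressed in S. cerevisiae causes slow growth, and suppressors are detected by OD600. The parent strain without NS1 is used as positive control.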
MARV entry inh: Marburg virus entry inhibition; Marburg virus pseudotyped entry inhibition, cell reporter; control for the full effect not named in the record; about a third of the inactives were read at about 46 µM; Potency, µM (doses to about 37.8 µM), without a hit: at the highest dose activity change, negative = inhibition, most hits filed as inhibitors; hit rate 1.8% among 300,000; active = well fitted inhibition curve with a large enough effect; inconclusive = small, poorly fitted or top-dose-only effect, or effect the other way; inactive = flat fitted curve, though single readings scatter; tested in HEK293 cells; about a fifth of its hits are not listed in these tables; note: % is set by controls: 0 for no effect and ±100 for the full control effect; luciferase read-out
Starred values were filed as active, the others as inactive; ? = inconclusive; / = no result given; & = joins results of further samples; [ ] = another dose, or the depositor's remark. Unless noted, calls come from the whole dose curve; as a rule, active means well fitted rising curve with a large enough effect; inconclusive means small, poorly fitted or top-dose-only effect; inactive means no such curve, though single readings can be large or run the other way. Potency is the fitted concentration of half-maximal effect.

A first look, 3 compounds:
SMILES | RE007 growth inh | Cruzain Triton | Lassa entry inh | SARS PLP yeast | StopGo reporter | Cruzain noTriton | NS1 function inh | MARV entry inh
COc1ccc(NC(=O)CN(C)C(=O)c2ccccc2OCC(=O)Nc2cccc(C(F)(F)F)c2)cc1 | -11% | / | -5% | / | -19% | / | / | -6%[46.1 µM]
O=C(CSCc1ccc([N+](=O)[O-])cc1)N/N=C/c1ccncc1 | -11% | / | 6% | -5% | -19% | / | / | 25%[46.1 µM]
O=C(NCC(=O)N(c1cccc(F)c1)C(C(=O)NCC1CCCO1)c1ccccc1)c1ccco1 (stereo not drawn) | 31% | 0.5% | 13% | -2% | -6% | 18% | -12% | 12%&12%

This part in full (from the top)
SMILES | RE007 growth inh | Cruzain Triton | Lassa entry inh | SARS PLP yeast | StopGo reporter | Cruzain noTriton | NS1 function inh | MARV entry inh
COc1ccc(NC(=O)CN(C)C(=O)c2ccccc2OCC(=O)Nc2cccc(C(F)(F)F)c2)cc1 | -11% | / | -5% | / | -19% | / | / | -6%[46.1 µM]
O=C(CSCc1ccc([N+](=O)[O-])cc1)N/N=C/c1ccncc1 | -11% | / | 6% | -5% | -19% | / | / | 25%[46.1 µM]
O=C(NCC(=O)N(c1cccc(F)c1)C(C(=O)NCC1CCCO1)c1ccccc1)c1ccco1 (stereo not drawn) | 31% | 0.5% | 13% | -2% | -6% | 18% | -12% | 12%&12%
O=C(NCCCN1CCN(c2ccccc2)CC1)c1nnc(Cc2ccc(F)cc2)o1 | / | -1.9% | 6%[46.1 µM] | / | -29% | 8% | / | /
COc1ccc(OC)c(S(=O)(=O)ON2C(=O)c3ccccc3C2=O)c1 | 16% | / | -24%[46.1 µM] | -2% | ? | / | 13% | ?
C/C(=N\NC(=O)c1c([N+](=O)[O-])c(C)nn1C)c1ccc(NC(=O)C2CCCC2)cc1 | 1% | / | -14%[46.1 µM] | -1% | -20% | / | -12% | /
O=C(C=Cc1cccnc1)c1ccccc1 | 45µM* | / | ? | / | 32µM* | / | / | 13µM*
CC[N+](CC)(CC#Cc1ccccc1)CC#Cc1ccccc1 | 6% | / | ? | 1% | ? | / | -2% | ?
CC(=O)N(C)c1ccc(N=Cc2cc3c(cc2[N+](=O)[O-])OCO3)cc1 | -8% | / | -18% | / | -18% | / | / | 7%[46.1 µM]
O=C(CSc1nnc(NC(=O)C2CCC2)s1)Nc1ccccc1 | 23% | / | -14% | 1% | -9% | / | 8% | -5%[46.1 µM]
O=S1(=O)N(Cc2ccccc2F)CCCN1Cc1c(F)cccc1Cl | 25% | / | ? | -6% | 38%[activator] | / | -35% | ?
C=CCNC(=S)Nc1ccc(Cl)c(S(=O)(=O)N2CCOCC2)c1 | 12% | / | / | 1% | 35%[activator] | / | 0% | /
O=C1c2ccccc2C(=O)c2c1oc(C(F)(F)F)c2C(=O)c1ccccc1 | ? | -4.6% | ? | -25% | -21% | 3% | ? | ?
CC(C)NS(=O)(=O)c1ccc(OCC(=O)N(C)Cc2ccccc2)cc1 | 10% | 4.0% | -1% | 1% | 15% | -8% | -1% | -1%
O=C(NC(=S)Nc1ccc(Cl)cn1)c1cccs1 | -7% | 7.8% | ? | 9% | 96%[activator] | -3% | -40% | ?
C=C(CC1([C@@H](NP(=O)(c2ccccc2)c2ccccc2)[C@H]2C[C@@H]2CCCC)CC1)c1ccccc1 | -3% | -3.6%&-4.6% | -15% | 10% | -30% | ? | 12% | -2%
Clc1ccc(CSc2nnc(-c3cccnc3)n2Cc2ccco2)c(Cl)c1 | 16% | -8.1% | -4% | -16% | -19% | ? | -51% | 3%
CC(Oc1ccc2ccc(=O)oc2c1)C(=O)c1ccccc1 (stereo not drawn) | -2% | -0.3% | 7% | 11% | -2% | -1% | 0% | 9%
Cc1cc(C)nc(Sc2ccc(C=O)cc2[N+](=O)[O-])n1 | -3% | / | -13%[46.1 µM] | 0% | -2% | / | -7% | -6%[46.1 µM]
Cc1ccc([N+](=O)[O-])c(OCCCN2C(=O)NC(C)(C)C2=O)c1 | 10% | / | / | 1% | 16% | / | 11% | /
O=C(c1cccc(Cl)c1)N1CCN(c2ncnc3c2cnn3-c2ccccc2)CC1 | 5% | / | ? | 0% | -4% | / | 1% | -18%[46.1 µM]
CCOC(=O)C1(Cc2cccc(OC)c2)CCCN(C(=O)CNC(C)=O)C1 (stereo not drawn) | -6% | / | 23%[46.1 µM] | 8% | 0% | / | -7% | ?
Cc1onc(-c2ccccc2Cl)c1C(=O)c1ccccc1 | 20% | / | 8% | -1% | ? | / | -2% | 1%[14.2 µM]
O=C1c2ccccc2NC(c2ccc(O)cc2)N1c1ccccc1 (stereo not drawn) | 1% | / | 18%[46.1 µM] | -2% | -5% | / | 0% | 10%[46.1 µM]
CCC(=O)N1CCc2cc(Br)cc(S(=O)(=O)NCCc3ccccc3Cl)c21 | / | -3.3% | ? | / | 46%[activator] | -7% | / | -21%[46.1 µM]
COc1cccc(/C=C/C(=O)NNC(=O)c2ccccc2)c1OC | -1% | / | -14%[46.1 µM] | -6% | 25% | / | / | ?
CS(=O)(=O)C1=NSC2=NC(=O)/C(=C\c3ccc(-c4ccccc4)o3)C(=N)N21 | / | -16% | 15% | 20% | / | 24% | 9% | 35%
Cc1ccc2c(c1)NC(=O)c1cccnc1N2 | -18% | -0.9% | ? | 0% | 45%[activator] | 4% | -13% | -14%
O=C(N/N=C/c1ccc(Br)s1)c1ccncc1 | 13% | / | ? | 1% | 14% | / | / | ?
Cc1ccc(C(=O)O/N=C/c2c(N3CCOCC3)n(C)c3ccccc23)cc1 | ? | -7.5% | ? | -23% | -5% | -18% | -142% | ?
CC(C)c1cc(=O)[nH]c(N2CCN(Cc3ccc4c(c3)OCO4)CC2)n1 | -2% | / | -19%[46.1 µM] | 5% | -14% | / | -1% | 27%[46.1 µM]
Cn1c(Cn2c(=O)sc3ccccc32)nnc1SCC(=O)N1CCCCCC1 | 5% | -0.3% | / | 10% | -2% | -6% | -8% | /
C/C(N)=C(/C#N)C(=O)COC(=O)C1CCN(S(=O)(=O)c2cccs2)CC1 | 1% | / | -4%[46.1 µM] | 2% | -16% | / | / | 8%[46.1 µM]
COc1ccc(C2=CC(=O)CC(c3ccccc3)C2)cc1 (stereo not drawn) | 12% | / | 3%[46.1 µM] | 0% | -4% | / | -8% | ?
Cc1ccc(-c2nnn(CC(=O)N(Cc3ccccc3)C(C(=O)NC(C)(C)C)c3ccncc3)n2)o1 (stereo not drawn) | -6% | -2.6% | 0% | 3% | -10% | ? | -22% | 1%&-28%
Cc1csc(NC(=O)c2ccc(OCC3CCCO3)cc2)n1 (stereo not drawn) | -9% | / | 3.5µM* | -3% | -68% | / | / | 4.5µM*
O=C(CCNS(=O)(=O)c1ccc(Br)cc1)NCc1ccc(Cl)cc1 | -1% | / | / | 0% | 1% | / | 0% | /
COc1ccc(CCNC(=O)CSc2nc3nc(C)c(Cc4ccc(C)cc4)c(C)n3n2)cc1OC | / | 0.1% | -25%[46.1 µM] | / | ? | ? | / | /
Cc1[nH]n(-c2ccccc2)c(=O)c1/C=N/n1c(C)nc2ccccc2c1=O | -9% | -2.6% | ? | -14% | -3% | -7% | -31% | -3%
CC(C)C(NC(=O)c1ccccc1)C(=O)NC1=NCCS1 (stereo not drawn) | 12% | -1.7% | ? | -4% | / | 8% | -16% | -20%

Pulled one by one from the entries so far, three records:
SMILES | RE007 growth inh | Cruzain Triton | Lassa entry inh | SARS PLP yeast | StopGo reporter | Cruzain noTriton | NS1 function inh | MARV entry inh
CCOC(=O)C1(Cc2cccc(OC)c2)CCCN(C(=O)CNC(C)=O)C1 (stereo not drawn) | -6% | / | 23%[46.1 µM] | 8% | 0% | / | -7% | ?
Cc1cc(C)nc(Sc2ccc(C=O)cc2[N+](=O)[O-])n1 | -3% | / | -13%[46.1 µM] | 0% | -2% | / | -7% | -6%[46.1 µM]
COc1cccc(/C=C/C(=O)NNC(=O)c2ccccc2)c1OC | -1% | / | -14%[46.1 µM] | -6% | 25% | / | / | ?

(next part)
SMILES | RE007 growth inh | Cruzain Triton | Lassa entry inh | SARS PLP yeast | StopGo reporter | Cruzain noTriton | NS1 function inh | MARV entry inh
COc1ccc(CC(=O)NCC2CCCCC2)cc1OC | -3% | / | / | 0% | -20% | / | -1% | /
CCOC(=O)CCc1c(C)c2ccc(OC3CCCCC3=O)c(C)c2oc1=O (stereo not drawn) | 3% | / | / | -1% | 12% | / | -2% | /
Cc1ccc(CNS(=O)(=O)c2cc3c4c(c2)CCN4C(=O)CC3)cc1 | 14% | / | -7% | 2% | 7% | / | / | 3%
Cc1cc(C)cc(NC2=C(N)C(=O)c3ccccc3C2=O)c1 | -4% | / | / | -2% | 52%[activator] | / | -1% | /
COc1ccccc1CNS(=O)(=O)c1c(C(=O)N2CCC(C)CC2)c(C)n(C)c1C | / | 0.0% | -16%[46.1 µM] | / | 34%[activator] | -9% | / | /
CC(C)NC(=O)/C(C#N)=C\c1ccc(N(C)C)c(Br)c1 | -7% | / | -5% | 13% | -22% | / | -4% | 14%[46.1 µM]
CN(C(=O)COC(=O)C(Cc1ccccc1)NC(=O)c1ccccc1)c1ccccc1 (stereo not drawn) | 0% | -21% | 6% | 13% | 3% | 1% | -9% | 9%
Cc1cc(=O)[nH]c(SCC(=O)Nc2ccc(Br)cc2)n1 | 1% | / | 9% | 3% | -6% | / | ? | 8%
CCOc1ccc(N(CC(=O)NC2CCCC2)C(=O)CSc2nnc(COc3ccccc3)o2)cc1 | -12% | -1.6% | -13% | -9% | / | ? | 3% | ?
CCOC(=O)c1sc(NC(=O)CCN2CCC(C)CC2)c(C(=O)OCC)c1C | 2% | / | / | -5% | -3% | / | / | -3%[46.1 µM]
Cc1ccc(CNC(=O)COC(=O)CCOc2ccc(C)cc2)cc1 | 10% | / | ? | -1% | -2% | / | / | -21%[46.1 µM]
CC(C)CNC(=S)Nc1ccc(S(N)(=O)=O)cc1 | / | 0.1% | 3% | 6% | -7% | -9% | 8% | 3%
